D2 PAM = Beta-Arrestin HTS for Positive Allosteric Modulators of the Human D2 Dopamine Receptor: Potentiators | potentiation, % (concentration not given with the values) | hit rate 0.23% among 360,000 | D(2) dopamine receptor (Homo sapiens), P14416 | DiscoveRx D2 beta-arrestin cells, luminescence, 90 min; 100% = 57 uM dopamine signal | AID 624464, 2012; active = potentiation of 50% or more; inconclusive = 30% to 50%; inactive = 30% or less;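 note: compound concentration not given in the record; tested on top of an EC20 dose of dopamine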
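PathHunter D2 cells, attached overnight at 37 deg C, received compound in DMSO plus dopamine at EC20 (50 nM final) for 90 min at 37 deg C. Beta-arrestin recruitment was read as luminescence after 1 h with detection reagent at ambient temperature.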
PINK1 expr mod = A Quantitative High throughput Screen to Identify Chemical Modulators of PINK1 Expression | PINK1 immunofluorescence, high-content cytometry, 24 h | Potency, µM (doses to about 76.6 µM), without a hit: at the highest dose activation (PINK1 increase), most hits filed as activators | hit rate 0.2% among 410,000 | AID 624263, 2012; active = well fitted activation curve with a large enough effect; inconclusive = small, poorly fitted or top-dose-only effect; inactive = flat fitted curve, though single readings scatter; cell line not stated here;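 note: potency is the fitted concentration of half-maximal effect; % of control where 0% means no effect; nearly all actives have a fitted effect of over 65% in size; a mitochondrial uncoupler was the plate control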
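PINK1 protein level read as immunofluorescence by microplate cytometer in a fixed, stained stable cell line after 24 h exposure to five compound concentrations, with CCCP as control.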
Six1-Eya2 blk = qHTS Assay for Inhibitors of the Six1/Eya2 Interaction; Homeobox protein SIX1 (Homo sapiens) + Protein phosphatase EYA2 (Homo sapiens), …; AlphaScreen GST-Six1/His-Eya2 binding, biochemical; hits give low values; control for the full effect not named in the record; activity change, % (test concentration not listed); hit rate 0.56% among 360,000; AID 651725, 2012; in the data active = activity change below about -65%; inconclusive = about -30% to -65%; inactive = above about -30%; note: % is set by controls: 0 for no effect and ±100 for the full control effect; compound concentration not given in the record
Target sequence (O00167 whole entry, looked up): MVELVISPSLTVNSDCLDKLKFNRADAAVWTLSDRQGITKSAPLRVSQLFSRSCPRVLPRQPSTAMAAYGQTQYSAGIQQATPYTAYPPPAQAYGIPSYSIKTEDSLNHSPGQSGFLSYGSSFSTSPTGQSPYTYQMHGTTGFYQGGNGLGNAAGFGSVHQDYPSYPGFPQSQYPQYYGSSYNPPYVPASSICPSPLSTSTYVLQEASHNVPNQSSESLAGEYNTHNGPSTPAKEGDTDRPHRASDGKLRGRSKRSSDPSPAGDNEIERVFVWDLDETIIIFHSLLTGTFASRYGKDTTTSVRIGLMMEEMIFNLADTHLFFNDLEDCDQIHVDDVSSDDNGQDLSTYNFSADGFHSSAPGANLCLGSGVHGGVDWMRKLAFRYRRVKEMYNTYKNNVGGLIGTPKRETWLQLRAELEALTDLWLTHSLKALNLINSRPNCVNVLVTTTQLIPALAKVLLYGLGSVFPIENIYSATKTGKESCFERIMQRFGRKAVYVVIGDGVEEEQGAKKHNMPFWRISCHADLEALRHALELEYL
Target sequence (Q15475 whole entry, looked up): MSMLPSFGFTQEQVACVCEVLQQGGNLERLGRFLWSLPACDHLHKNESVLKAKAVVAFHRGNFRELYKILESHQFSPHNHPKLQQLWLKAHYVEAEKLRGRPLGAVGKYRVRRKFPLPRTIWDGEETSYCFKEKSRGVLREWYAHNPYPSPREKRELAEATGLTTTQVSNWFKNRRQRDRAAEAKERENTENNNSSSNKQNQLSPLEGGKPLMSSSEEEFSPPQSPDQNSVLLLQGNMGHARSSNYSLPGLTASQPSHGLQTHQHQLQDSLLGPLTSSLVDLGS
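AlphaScreen with GST-Six1 and His-Eya2 (5X mix: 250 nM and 500 nM), glutathione donor and nickel acceptor beads; buffer 50 mM Tris pH 8.0, 300 mM NaCl, 1 mM TCEP; 1 h at 37 C in the dark.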
Sfp PPTase inh = qHTS Assay for Inhibitors of Bacillus subtilis Sfp phosphopantetheinyl transferase (PPTase); Biochemical Sfp PPTase activity, qHTS; Potency, µM, for inactives: max response, negative = inhibition, actives largely listed as inhibitors; AID 1490, 2009; hit rate 3.5% among 310,000; active = well fitted inhibition curve with a large enough effect; inconclusive = small, poorly fitted or top-dose-only effect, or another doubt; inactive = no such curve, though single readings can be large or run the other way;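 note: the enzyme is Sfp with the accession as filed and its product quenches rhodamine fluorescence; potency is the fitted concentration of half-maximal effect; 0% = enzyme reaction without inhibitor and -100% = no enzyme wells; top concentration of the series not given in the record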
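With Hepes-Na pH 7.6 buffer containing 10 mM MgCl2, Sfp (15 nM) modified BHQ-2-YbbR (12.5 uM) using rhodamine-CoA (5 uM). Two reads 30 minutes apart at 525/598 nm yielded each well's rate.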
D2 agonist = Beta-Arrestin HTS for Positive Allosteric Modulators of the Human D2 Dopamine Receptor: Agonists. hit rate 0.084% among 360,000. activation, % (test concentration not listed). DiscoveRx PathHunter D2 beta-arrestin, luminescence, 90 min; 100% = 57 uM dopamine signal. D(2) dopamine receptor (Homo sapiens), P14416; in the data active = activation above about 40%; inconclusive = about 15% to 40%; inactive = below about 15%; note: compound concentration not given in the record; the text of the record calls up to 30% inactive
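DiscoveRx PathHunter D2 beta-arrestin cells (2,100/well) attached overnight, then compound-stimulated 90 min at 37 C in HBSS/10 mM HEPES/0.1% Tween-20 buffer; beta-galactosidase complementation read by luminescence after 1 h at ambient temperature. Dopamine 57 uM final (EC100) as control.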
CtBP-E1A inh = qHTS Assay for Inhibitors of the CtBP/E1A Interaction. CtBP / adenovirus E1A interaction (AlphaScreen). AlphaScreen GST-E1A/His-CtBP binding, 1536-well; hits give low values; control for the full effect not named in the record. activity change, % (no concentration beside the values). hit rate 0.49% among 340,000; in the data active means activity change below about -65%; inconclusive means about -30% to -65%; inactive means above about -30%; note: % is set by controls: 0 for no effect and ±100 for the full control effect; compound concentration not given in the record
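AlphaScreen with 125 nM GST-E1A and 125 nM His-CtBP (5X stocks) in Tris pH 8.0, 300 mM NaCl, BSA, Tween 20, TCEP. Compounds preincubated 2 h at 37 deg C, then glutathione donor/nickel acceptor beads added for 1 h at 37 deg C in dark.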
TRPV1 PAM = HTS Assay for Compounds that Act as Potentiators of the Vanilloid Receptor 1; AID 540277, 2011; potentiation, % at 8.33 µM; hit rate 0.02% among 320,000; TRPV1-expressing cells, Fluo-8 calcium influx, capsaicin EC20 potentiation; host cell line not named in the record; control for the full effect not named in the record; Transient receptor potential cation channel subfamily V member 1 (Homo sapiens), Q8NER1; active means potentiation above 80%; inconclusive means 30% to 80%; inactive means below 30%; note: 0% is about no effect
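Cells expressing TRPV1 were dye-loaded with Fluo-8 and read kinetically: 10 s baseline, 3 min after compound (agonist portion), then 2 min after EC20 capsaicin (allosteric enhancer portion). Calcium-bound dye fluorescence at 480/520 nm.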
Active calls of the source: *; u = inconclusive; x = not tested or not shown; & = joins results of further samples; [ ] = remark or other dose.

No. | Molecule | TRPV1 PAM | D2 agonist | Six1-Eya2 blk | PINK1 expr mod | Sfp PPTase inh | CtBP-E1A inh | D2 PAM
1 | Cc1nc2ccc(NS(=O)(=O)c3ccc(F)c(C)c3)cc2[nH]1 | -7 | 3.0 | -1 | 0.9% | 1% | x | 9
2 | Nc1c(Cl)cc(-c2csc(N3CCCC3c3nc4cc(Cl)c(Cl)cc4n3CCCO)n2)cc1Cl (stereo not drawn) | x | -3.6 | -9 | 0.5% | x | -2 | -11
3 | O=c1c(Cl)c(N2CCN(c3ccccc3)CC2)cnn1C12CC3CC(CC(C3)C1)C2 | -9 | -0.3 | -7 | 0.9% | 4% | -11 | -12
4 | COc1cccc(CNc2ccc(S(N)(=O)=O)cc2)c1OCc1ccccc1F | 20 | 0.3 | -6 | -2.2% | -5% | -3 | 13
5 | Cc1cccc(C(=O)NC2CCN(S(=O)(=O)c3ccccc3)CC2)c1 | 4 | -3.0 | -6 | 5.9% | 9% | -11 | -6
6 | O=C(CN1c2cccc3cccc(c23)S1(=O)=O)Nc1ccc(S(=O)(=O)N2CCOCC2)cc1 | -2 | 6.1 | -1 | 2.3% | u | -4 | -4
7 | O=C(c1ccccc1)c1ccc(C(=O)N2CCN(c3ccccc3)CC2)cc1 | -7 | -1.9 | -14 | 1.2% | -4% | -6 | -5
8 | COc1cc(OC)c(-c2nc3c[n+](CC(=O)c4ccccc4)ccc3n2C)cc1OC | -13 | 1.7 | -2 | x | 2% | 9 | -23
9 | C=CC[C@@H](CC(=O)NCCO)C(=O)N[C@@H](C)COC(=O)[C@H](CC=C)CC(=O)OC(C)(C)C | x | -0.4 | 4 | 0.5% | x | 2 | x
10 | O=C1C=C(/C=C/C2C=CC=CC2)C[C@@H](c2ccc(Cl)cc2)C1 (stereo partly drawn) | 6 | -2.7 | -7 | -0.9% | x | -6 | -7
11 | COc1ccc(Cc2nnc(SCC(=O)N(c3ccccc3)C(C)C)n(N)c2=O)cc1 | -2 | -3.8 | -2 | -0.8% | x | -1 | -14
12 | CCOC(CNC(=O)c1ccc2c(c1)nc(C)n2-c1cccc(F)c1)OCC | 1 | -0.9 | 32 | -1.4%[38.3 µM] | 24% | 61 | 8
13 | Cc1nc2oc3ccccc3c(=O)c2c(=O)n1Cc1ccccc1 | -1 | -1.3 | -26 | -1.2% | 3% | -26 | -4
14 | CC(=O)Nc1ccc(S(=O)(=O)N(C)CC(=O)OCC(=O)NC(C)C23CC4CC(CC(C4)C2)C3)cc1 (stereo not drawn) | -16 | 0.2 | -3 | 7.8% | 1% | 8 | -4
15 | CNC(=O)c1ccc(-n2cccn2)nc1 | -7 | -1.8 | 6 | 0.5% | -9% | 2 | -12
16 | CCN(CC)S(=O)(=O)c1ccc(N2CCOCC2)c(NC(=O)COc2ccc(OC)cc2)c1 | -3 | 7.0 | -11 | 0.2% | x | -12 | 0
17 | CCOC(=O)/C=C(C)\C=C\c1c[nH]c2ccccc12 | 4 | -0.5 | -13 | 1.4% | 13% | -19 | -8
18 | CCCCN1CC(N2CCN(Cc3ccccc3)CC2)CS1(=O)=O (stereo not drawn) | x | -2.6 | 1 | -0.9% | x | -1 | -10
19 | COc1ccc2c(CC(=O)NC(Cc3ccc(Cl)cc3)C(=O)O)cc(=O)oc2c1C (stereo not drawn) | 1 | 1.7 | -5 | 0.2% | 13% | x | -1
20 | COc1ccc(CCNC(=O)CN(c2ccccc2OC)S(=O)(=O)c2ccc(C)cc2)cc1 | 2 | -1.4 | -3 | 1.1%&1.2% | 6% | 4 | 17
21 | COc1ccc(C(NC(=O)C2CCN(Cc3cc(OC)cc(OC)c3)CC2)c2ccccn2)cc1 (stereo not drawn) | x | 6.9 | -3 | -0.9% | x | -18 | -14
22 | CC(NC(=O)CCC(=O)Nc1ccccc1O)c1ccccc1 (stereo not drawn) | x | -2.7 | -2 | 1.2% | x | 2 | -12
23 | COc1ccc2ccccc2c1/C=N/NC(=O)c1cccc([N+](=O)[O-])c1 | -1 | 4.1 | 3 | 3.2% | -7% | 1 | -24
24 | CCOC(=O)[C@@H]1[C@H]2COc3ccc(Br)cc3[C@H]2N2C(=O)N(c3ccc(C)cc3)C(=O)[C@]12C | 4 | -0.2 | -4 | -0.3% | 15% | -3 | -8
25 | O=C(O)c1cnn2c(C(F)(F)F)cc(-c3ccco3)nc12 | 1 | -1.5 | -10 | 3.8%[38.3 µM] | 4% | -5 | -7
26 | CCCN(CCC)CC(O)COc1ccc([N+](=O)[O-])cc1 (stereo not drawn) | 6 | -0.6 | 2 | -0.1% | 0% | 3 | 4
27 | CN(C1CCCCC1)S(=O)(=O)c1ccc2c(c1)c(=O)c(C(=O)NCCCN1CCCC1)cn2C | 3 | -8.3 | -4 | 0.2% | -13% | -12 | -10
28 | C/C=C(\C)C(=O)Nc1cccc(C2=NOC3(C2)C[C@H](C(N)=O)N(C(=O)c2cc([N+](=O)[O-])cc([N+](=O)[O-])c2)C3)c1 (stereo partly drawn) | -17 | 12 | -7 | 0.7% | 8% | 4 | 71*
29 | COc1cc(C2Nc3cccc4cccc(c34)N2)cc(OC)c1OC(C)=O | 17 | 4.9 | -23 | -1.0% | -26% | -11 | 0
30 | Cc1cccn2c(=O)c3cc(C(=O)NCCN4CCOCC4)c(=N)n(CCCN4CCOCC4)c3nc12 | 3 | -6.4 | -26 | 0.4% | 21% | -27 | -14
31 | N#CCOc1nc(N2CCCCC2)nc(N2CCCCC2)n1 | -9 | -4.7 | 4 | 0.8% | 1% | x | -11
32 | COc1ccc(OC)c(-n2c(SCC(=O)Nc3cccc(S(N)(=O)=O)c3)nc3ccccc3c2=O)c1 | x | 0.6 | -1 | -1.8% | 21% | -5 | 4
33 | COc1ccc(CC(=O)Nc2ccc(-c3ccc4nnc(C)n4n3)cc2)cc1OC | -4 | 0.6 | -22 | 2.5% | 8% | -16 | -9
34 | O=C(O)/C(=C\c1ccccc1OC(F)F)Sc1nnc(-c2ccc(F)cc2)o1 | -8 | -1.7 | -3 | 1.5% | 13% | -10 | -1
35 | COCCCNC(=S)N/N=C/c1cccc(OC)c1O | 9 | -4.4 | -90* | -0.6% | 7% | -92* | -12
36 | CCc1ccc(NS(=O)(=O)c2ccc3oc(=O)ccc3c2)cc1 | 1 | 0.3 | 4 | 4.3% | 0% | -1 | -7
37 | COC(=O)c1ccccc1NS(=O)(=O)c1ccc(Cl)nc1 | 8 | -0.4 | -7 | 0.5% | 7% | 8 | -1
38 | Cc1ccc(-n2c(SCC(=O)N3CCCCC3)nc(O)cc2=O)cc1 | -1 | -3.1 | u | 0.3% | 4% | 4 | -3
39 | CCOC(=O)c1c(Cc2ccc(Cl)cc2)c[nH]c1C | 18 | -2.2 | -3 | 7.6% | 17% | -3 | 7
40 | COc1ccccc1N1CCN(C2=Nc3cccc4cccc2c34)CC1 | 15 | -0.7 | u | 11% | -19% | u | -15
41 | N#Cc1c(-c2ccccc2)cc(-c2ccccc2)nc1SCC(=O)NCC(=O)O | -2 | 3.8 | -28 | 1.5% | 20µM* | -19 | 0
42 | CCN(CC)c1ccc(C(=O)c2cnc(/N=C/N(C)C)s2)cc1 | -21 | -2.7 | 3 | 1.4% | 3% | 41 | -5
43 | Cc1ccc(Cc2c(-c3ccccc3)nc3cc(C)c(Br)c(C)n23)cc1 | x | -5.6 | 0 | 9.5% | x | 5 | -5
44 | CC(=O)N1Cc2cc(C(=O)NCC(F)(F)F)nc(-c3cccc(-c4cc5ccccc5o4)c3)c2[C@H]1CCO | x | x | 1 | 7.6% | x | 1 | x
45 | O=C(c1cnn2c(C(F)F)cc(-c3ccccc3)nc12)N1CCc2ccccc2C1 | 0 | -2.5 | 18 | -1.0% | 11% | 16 | 0

Results in sequence from the entries so far:
Compounds 27 to 38 in PINK1 expr mod, in turn: 0.2%, 0.7%, -1.0%, 0.4%, 0.8%, -1.8%, 2.5%, 1.5%, -0.6%, 4.3%, 0.5%, 0.3%
Compounds 27 to 38 in TRPV1 PAM, in turn: 3, -17, 17, 3, -9, x, -4, -8, 9, 1, 8, -1

Molecules listed so far containing a Cl atom:
No. | Molecule | TRPV1 PAM | D2 agonist | Six1-Eya2 blk | PINK1 expr mod | Sfp PPTase inh | CtBP-E1A inh | D2 PAM
2 | Nc1c(Cl)cc(-c2csc(N3CCCC3c3nc4cc(Cl)c(Cl)cc4n3CCCO)n2)cc1Cl (stereo not drawn) | x | -3.6 | -9 | 0.5% | x | -2 | -11
3 | O=c1c(Cl)c(N2CCN(c3ccccc3)CC2)cnn1C12CC3CC(CC(C3)C1)C2 | -9 | -0.3 | -7 | 0.9% | 4% | -11 | -12
10 | O=C1C=C(/C=C/C2C=CC=CC2)C[C@@H](c2ccc(Cl)cc2)C1 (stereo partly drawn) | 6 | -2.7 | -7 | -0.9% | x | -6 | -7
19 | COc1ccc2c(CC(=O)NC(Cc3ccc(Cl)cc3)C(=O)O)cc(=O)oc2c1C (stereo not drawn) | 1 | 1.7 | -5 | 0.2% | 13% | x | -1
37 | COC(=O)c1ccccc1NS(=O)(=O)c1ccc(Cl)nc1 | 8 | -0.4 | -7 | 0.5% | 7% | 8 | -1
39 | CCOC(=O)c1c(Cc2ccc(Cl)cc2)c[nH]c1C | 18 | -2.2 | -3 | 7.6% | 17% | -3 | 7

Screening results from PubChem BioAssay.
